Screens (PubChem BioAssay)
NPYLR7 agonist: activates Aedes aegypti NPYLR7 receptor; HEK293T NPYLR7/Galpha15, GCaMP6s calcium fluorescence; activation, % at 10 µM; actives 0.15% (n = 270,000); AID 1259423; in the data active = activation above about 40%;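 also: 0% = vehicle and 100% = reference agonist at the receptor; some compounds past the cut are filed as inactive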
NPYLR7 agonist max-min: further read-out of NPYLR7 agonist, marked with its call; activation, %; measured here: Max-Min RFU normalised activation; some inactives read as strong as hits;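 span of the calcium signal over five minutes; 0% = vehicle and 100% = native peptide agonist; compound fluorescence can raise it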
* marks the source's active call; other numbers are inactive results; & = joins results of further samples. A portion of the library; count on the stated rates, not on these rows.

nr	canonical_smiles	NPYLR7 agonist max-min	NPYLR7 agonist
1	CCCCC(CC)C(=O)N(Cc1ccc(OS(C)(=O)=O)cc1)Cc1ccco1 (centres undefined)	6	3
2	Cc1nnsc1CN(C)C(=O)c1cc(CC(C)C)nn1C	-3	-5
3	COc1ccc2sc(SCc3ccc(C(=O)N4C5CCC4CC(Oc4ccccc4C(C)C)C5)cc3)nc2c1 (centres undefined)	-4	6
4	COc1cc2c(cc1OC)C1=CC3(C(=O)Nc4c(C)cccc43)C(C#N)C(=N)N1CC2 (centres undefined)	4	8
5	CC(C)CC(NC(=O)c1cn(C)c2ccccc12)c1nnc2n1CCNCC2 (centres undefined)	3	7
6	O=C(NC1CCCN(Cc2ccccc2)C1)c1cn(Cc2ccccc2F)nn1 (centres undefined)	3	12
7	CC(C)Cn1nnnc1SC1CCCN(C(C)C)C1=O (centres undefined)	5	5
8	CCOc1c(C=C(C#N)C#N)c2ccccc2n1CC	-12	-8
9	CCCCN(CC(=O)N1c2ccccc2-n2cccc2C1c1ccc(F)cc1)C(=O)c1ccccc1OC (centres undefined)	11	2
10	COc1ccc(C2=NOC(CN(Cc3cccc(Cl)c3)C(=O)C3CCCC3)C2)cc1OC (centres undefined)	8	-1
11	Cc1ccc2nc(Cn3nc(C4CCNCC4)n(Cc4ccccc4)c3=O)cn2c1	-14	-8
12	O=C(/C=C/c1ccccc1Cl)NCc1cccc(-c2ncc(-c3ccc(F)cc3)[nH]2)c1	-11	-7
13	Cc1cc(Oc2ccccc2Cl)nc(SCc2ccccc2Cl)n1	25	11
14	Cc1ccc(C(C2Sc3nc(-c4ccco4)nn3C2=O)N2CCC(O)CC2)cc1 (centres undefined)	1	3
15	CCN(CCN1C(=O)CSC1c1ccccc1C)C(=O)COC (centres undefined)	30	21
16	O=C(Nc1ccc(-c2ccccc2)cc1)N[C@@H](Cc1ccccc1)C(=O)N1CCC(C(=O)N2CCCCC2)CC1	25	35
17	CCCCCc1ccc(C(=O)N2CCN(c3nc(C)nc(C)c3Cc3ccc(F)cc3)CC2)cc1	-3	-4
18	Cc1ccc(-n2c(SCc3ccc(C(=O)N4CCOCC4)cc3)nnc2-c2ccc([N+](=O)[O-])cc2)cc1	-1	-2
19	Cc1nn(Cc2ccccc2)c(C)c1C(=O)N1CCc2ccccc2C1	-2	-1
20	Cc1ccc(NC(=O)C2CC2)cc1NCC(=O)NC(C)c1ccc(F)cc1 (centres undefined)	2	1
21	CCOC(=O)c1cccc(NC(=O)NCCCN(C)c2ccccc2)c1	-4	-4
22	COc1cccc(CNC(=O)CCC2CCCN(C(=O)c3ccc4cccc(F)c4n3)C2)c1 (centres undefined)	5&6	5&18
23	Cc1cc(NC(=O)C(C)OC(=O)CC23CC4CC(CC(O)(C4)C2)C3)no1 (centres undefined)	6	8
24	CCOC(=O)c1cnc(SC)nc1N1Cc2cnn(CCO)c2C1	-2	0
25	CCc1cc(CN(C)C2CCN(C(C)=O)CC2)on1	-3	-1

Next structures.
nr	canonical_smiles	NPYLR7 agonist max-min	NPYLR7 agonist
26	CN(C(=O)CNC(=O)NC1CCCCC1)C(c1ccccc1)c1ccccn1 (centres undefined)	7	8
27	CC1CCCN(C(=O)COC(=O)c2ccc(=O)n(Cc3ccccc3)n2)C1 (centres undefined)	-1	-1
28	Cc1ccc(/C=C/C2=NC(=C\C=C\c3ccccc3)/C(=O)O2)cc1	-4	0
29	CC(=O)c1c(C)nn(CC(=O)N(C)Cc2ccc(C)o2)c1C	0	3
30	CCS(=O)(=O)c1ccc2oc(-c3cc([N+](=O)[O-])ccc3OS(=O)(=O)c3ccc(F)cc3)nc2c1	21	23
31	O=C(NCCc1c[nH]c2ccccc12)c1cccnc1Nc1cc(Cl)cc(Cl)c1	-19	-13
32	Cc1cc(NC(=O)C(C)SCc2c(F)cccc2Cl)no1 (centres undefined)	-3	-4
33	O=C(c1cc(COc2ccc3c(c2)CCCC3)on1)N1CCc2ccccc2C1	5	20
34	COc1ccc(CN(CCc2c[nH]c3ccccc23)C(=O)CN(C(=O)c2ccc(OC)cc2)C2CC2)cc1	8	1
35	C=CC[C@@H]1CC=C[C@@H](C)N1Cc1nc(-c2ccc(F)c(OC)c2)oc1C	-16	-14
36	COCc1c(Br)c(C)nc(OCC(=O)N/N=C\c2ccc(O)c(Br)c2)c1C#N	-21	-12
37	O=C1CCCc2onc(Nc3ccccc3)c21	-3	-1
38	O=C1CN(NC(=O)CCCC2CCCCC2)C(=O)N1	3	6
39	C=CCOC(=O)C1=C(C)N(C)C(=O)NC1c1cc(OC)ccc1OC (centres undefined)	8	1
40	O=C(CN1C(=O)c2cccc([N+](=O)[O-])c2C1=O)Nc1ccc(Br)cc1	-13	-6
41	Cc1nn(C)c(C)c1CC(=O)NCCNC(=O)c1ccc(C(F)(F)F)cc1	-1	-1
42	Oc1c(N=Nc2ccc3c(c2)OCCO3)sc2ccccc12	-1	1
43	Cc1ccc(C2SCCN2S(C)(=O)=O)cc1 (centres undefined)	-1	5
44	CC(NC(=O)c1ccc2nc[nH]c2c1)c1ccc(Cl)cc1Cl (centres undefined)	2	11
45	CCn1c(N2CCN(Cc3ccc(C)cc3)CC2)nc2c1c(=O)[nH]c(=O)n2C	-5	-2
46	CCc1cccc(N=c2oc3c(C)ncc(CO)c3cc2C(=O)Nc2cccc3ccccc23)c1	-14	-6
47	Cc1cc(O)c(C(c2ccccn2)N2CCN(c3ccccn3)CC2)c(=O)n1Cc1ccccc1 (centres undefined)	-1	-2
48	CN(Cc1cc2ccccc2[nH]c1=O)Cc1ccnc2ccccc12	-1	1
49	Cc1ccc(-n2ncc3c(C4CC4)nn(CC(=O)N4CCC(C)CC4)c(=O)c32)cc1C	4	5
50	CCCN(C(=O)c1ccccc1N)C(C)C	1	3

Retrieved by compound from above (two):
nr	canonical_smiles	NPYLR7 agonist max-min	NPYLR7 agonist
34	COc1ccc(CN(CCc2c[nH]c3ccccc23)C(=O)CN(C(=O)c2ccc(OC)cc2)C2CC2)cc1	8	1
33	O=C(c1cc(COc2ccc3c(c2)CCCC3)on1)N1CCc2ccccc2C1	5	20

Look-ups from the list:
Under NPYLR7 agonist, O=C(/C=C/c1ccccc1Cl)NCc1cccc(-c2ncc(-c3ccc(F)cc3)[nH]2)c1 is entered as -7
Under NPYLR7 agonist max-min, CC(C)Cn1nnnc1SC1CCCN(C(C)C)C1=O (centres undefined) is entered as 5
Under NPYLR7 agonist max-min, C=CCOC(=O)C1=C(C)N(C)C(=O)NC1c1cc(OC)ccc1OC (centres undefined) is entered as 8
Under NPYLR7 agonist max-min, Cc1ccc(-n2c(SCc3ccc(C(=O)N4CCOCC4)cc3)nnc2-c2ccc([N+](=O)[O-])cc2)cc1 is entered as -1

Arranged by SMILES length (descending): some entries from above
nr	canonical_smiles	NPYLR7 agonist max-min	NPYLR7 agonist
35	C=CC[C@@H]1CC=C[C@@H](C)N1Cc1nc(-c2ccc(F)c(OC)c2)oc1C	-16	-14
44	CC(NC(=O)c1ccc2nc[nH]c2c1)c1ccc(Cl)cc1Cl (centres undefined)	2	11
50	CCCN(C(=O)c1ccccc1N)C(C)C	1	3

More entries follow.
nr	canonical_smiles	NPYLR7 agonist max-min	NPYLR7 agonist
51	Cc1ccc(-c2nc(C)c(C)c(N3CCN(S(=O)(=O)c4cccc5cccnc45)CC3)n2)cc1	-2	-4
52	O=C(Nc1ccc(SCc2ccncc2)nn1)c1cccc(F)c1	-6	-3
53	Cc1nn(C)cc1-c1ccnc(NCc2ccccc2-n2ccnc2)n1	0	-3
54	O=C1NC(=Nc2ccccc2)S/C1=C/c1cccc(Cl)c1Cl	-12	-7
55	COC(=O)CCCN1C(=O)NC2NC(=O)NC21 (centres undefined)	4	5
56	Cc1cccc(OCC(=O)N2CCCC(O)(CO)CC2)c1C (centres undefined)	4	5
57	CCOC(=O)CCNC(=O)c1ccc(-n2ncc(C#N)c2N)cc1	1	4
58	C=C(Br)CN(C)C(C)C(C)S(C)(=O)=O (centres undefined)	6	4
59	C=CCCC(O)(CCC=C)c1ccc(CN(CCCOC)Cc2ccc(C)o2)o1	3	-2
60	COc1ccc(NC(=O)CSc2nc(=O)n(CCN3CCOCC3)c3c2CCC3)c(OC)c1	-4	0
61	CC(=O)NC(C(=O)Nc1ncc(Cc2cc(F)cc(F)c2)s1)C(C)C (centres undefined)	-4	-3
62	C/C=C/CC/C=C/CC(=O)C1OC1C(N)=O (centres undefined)	-5	-1
63	CC1CN(C(=O)c2ccc([N+](=O)[O-])cc2Cl)CC(C)O1 (centres undefined)	10	10
64	COc1ccc(CC(=O)NCCc2cc3ccc(C)cc3[nH]c2=O)cc1	33	0
65	C[C@H](NC(=O)N1CC2CC=CCC2C1)C(=O)N1CCCCC1 (some centres undefined)	-5	-4
66	O=C(c1ccc2nc(C3CC3)oc2c1)N1CCCC1c1ccc(F)cc1 (centres undefined)	3	12
67	CN(C(=O)Cc1csc(-c2ccc(Cl)s2)n1)c1nccs1	4	6
68	COc1ccc(Nc2cc3c(cn2)cc(-c2cnn(C)c2)n3Cc2ccccc2)cn1	0	31
69	Cc1c(C(=O)N2CCCCC2)sc(N)c1C#N	3	4
70	CN(Cc1ccoc1)C(=O)C1CCCN(C2CCN(C(=O)C3CC3)CC2)C1 (centres undefined)	2	4
71	Cc1cc(C(=O)NC2(C(=O)O)CCCCC2)c2ccccc2n1	0	4
72	Cn1cc(CN(Cc2ccc(S(C)(=O)=O)cc2)C2CC2)cn1	-5	0
73	CCc1cccc(CC)c1NC(=O)C(C)n1c(C)cc(C)nc1=O (centres undefined)	5	6
74	O=C(NCCNc1ncc(C(F)(F)F)cc1Cl)C1Cc2ccccc2S1 (centres undefined)	4	7
75	OC1CCN(c2ccnc(NCCc3ncc[nH]3)n2)CC1	0	10

(listing goes on)
nr	canonical_smiles	NPYLR7 agonist max-min	NPYLR7 agonist
76	CCCCOc1ccc(S(=O)(=O)NC(=O)C2(C)CCN2C(=O)c2ccccc2)cc1 (centres undefined)	3	5
77	CC(C)Cc1nc(CN2C(CO)CSCC2c2ccccc2)no1 (centres undefined)	10	16
78	O=C(O)C#CC12CC3CC(CC(C3)C1)C2	10	10
79	Cc1csc(=O)n1CC(=O)Nc1nc(-c2ccccc2)cs1	1	2
80	CN1CCN(C(=O)c2ccc(CSc3nc(-c4ccccc4)cc(N(C)Cc4ccccc4)n3)cc2)CC1	0	7
81	Cn1nnc2cc(C(=O)NCc3ccccc3-n3ccnc3)ccc21	2	11
82	Cc1ccccc1C(=O)NNC(=O)COc1ccc(Br)cc1	-9	-4
83	Cn1nnnc1SCC(=O)CSc1nnnn1C	-4	-3
84	CCN(CC)c1onc(-c2ccc(F)cc2)c1CN(CCCOC)C(=O)Cc1ccccc1	25	-3
85	CC(=O)OC(C)(C)C(=O)N1CCN(c2nccc(-c3ccc(Oc4ccccc4)cc3)n2)CC1	29	25
86	C=c1ccccc1=c1[nH]/c(=C\c2cccn2C)c(=O)o1	-6	-2
87	CNc1cnc(-c2ccc(OC)cc2OC)cn1	2	3
88	CCN1CCN(c2c(CN(C(=O)Cc3ccccc3)C3CC3)c(C)nn2-c2ccccc2)CC1	4	-1
89	COc1ccc(S(=O)(=O)N2CCC(c3c[nH]c4ccc(OC)cc34)CC2)c(OC)c1	21	33
90	O=C(O)c1c[nH]c2ccc(F)cc2c1=O	2	0
91	Cc1cc(NC2CCCC2)n2nc(C)c(-c3ccc(Cl)cc3)c2n1	-6	-4
92	Cc1ncsc1CCC(=O)N1CCCC(N(C)C)CC1 (centres undefined)	13	16
93	C=CCN(CC(=O)N(CCc1ccc(OC)c(OC)c1)Cc1sccc1C)C(=O)C(CC)c1ccccc1 (centres undefined)	-7	0
94	COc1ccc2ccccc2c1CCNC1CCN(C(=O)C(C)C)CC1	1	2
95	CCOCCn1ccc2c(NC(=O)COc3cccc(Cl)c3)c(OC(=O)N(CC)CC)ccc21	1	-1
96	C=C(C)COc1ccc(-c2nc(N)ncc2Oc2ccccc2OCC)c(O)c1	3	2
97	CNC(=O)c1ccc(C)c(-n2ccnc2-c2cccc(OCCO)c2)c1	-8	2
98	CCc1ccc(CCC(=O)N2CCCC3(CNC(=O)O3)C2)cc1 (centres undefined)	8	11
99	Cc1cc(CN2CCCC(CCC(=O)Nc3ccccc3F)C2)oc1C (centres undefined)	5	8
100	COc1ccc(OCc2cc(C(=O)N(C)Cc3cn(C)nc3C)no2)c2ccccc12	3	4

Reformatted with two lines to a compound: part of the list above.
Each structure is followed by: NPYLR7 agonist max-min | NPYLR7 agonist
(76) CCCCOc1ccc(S(=O)(=O)NC(=O)C2(C)CCN2C(=O)c2ccccc2)cc1 (centres undefined)
→ 3 | 5
(77) CC(C)Cc1nc(CN2C(CO)CSCC2c2ccccc2)no1 (centres undefined)
→ 10 | 16
(78) O=C(O)C#CC12CC3CC(CC(C3)C1)C2
→ 10 | 10
(79) Cc1csc(=O)n1CC(=O)Nc1nc(-c2ccccc2)cs1
→ 1 | 2
(80) CN1CCN(C(=O)c2ccc(CSc3nc(-c4ccccc4)cc(N(C)Cc4ccccc4)n3)cc2)CC1
→ 0 | 7

(listing goes on)
nr	canonical_smiles	NPYLR7 agonist max-min	NPYLR7 agonist
101	O=S(=O)(c1cc(Cl)ccc1Cl)N1CCN(Cc2ccc3c(c2)OCO3)CC1	-4	-1
102	C=CCNC(=O)COc1coc(CN2CCN(c3ccccc3OC)CC2)cc1=O	23	2
103	CCc1nc(NC(=O)CNC(=O)c2ccc(OC)c(OC)c2)sc1C	2	1
104	CCn1cc(C(CC(=O)NCc2ccc3c(c2)OCO3)c2cccc(F)c2)c2ccccc21 (centres undefined)	2	2
105	CCCC1=NN(C(=O)c2ccc(C)cc2Cl)C(O)(C(F)(F)F)C1 (centres undefined)	0	2
106	CN1CCN(c2cc(N(C)CCCn3cccn3)nc(N)n2)CC1	-9	-5
107	Cc1cc(C)c(C)c(S(=O)(=O)N2CCNCC2)c1C	0	1
108	COc1ccc(CN(CC(O)COc2ccccc2C)CC2CCCO2)cc1 (centres undefined)	6	-4
109	CCC(Nc1cccc(OC)c1)C(=O)N1CCC(C(=O)OC)CC1 (centres undefined)	-11	-2
110	S=c1nccc(-c2ccccc2)[nH]1	-14	-8
111	COc1ccccc1-c1cc(C(=O)NCC(C)C)n2nc(C(C)(C)C)cc2n1	7	10
112	COc1ccc(Cl)cc1C(=O)Nc1c(C)nc2ccc(C)cn2c1=O	2	4
